Assay outcomes as filed in PubChem.
HNF4A DNA FP: change in binding of human HNF4 alpha to DNA | HNF4a-FITC DNA binding, fluorescence polarization, 1 h | activity change, % at 10 µM | actives 0.3% (n = 360,000) | AID 1224865; in the data active = activity change above about 30%, passing the limit was not always enough;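 note: controls were the assay level and a saturating level of protein; the project sought stronger binding though the title names inhibitors; some compounds called inactive have numbers as strong as hits; positive values seem to mean higher polarization but the record does not say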
ALR H2O2 inh: blocks human ALR sulfhydryl oxidase activity; actives 3.8% (n = 290,000); inhibition, % (concentration not given with the values); purified ALR, DTT oxidation, H2O2 HRP-luminol luminescence; P55789; AID 485317;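 active = mean and each replicate at 75% or more; inconclusive = only one of the two met; inactive = neither met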;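 note: stock transfer was 7.5 nL into about 7.5 µL; 0% = neutral wells and 100% = wells with inactivated enzyme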
Target sequence (P55789 whole entry, looked up): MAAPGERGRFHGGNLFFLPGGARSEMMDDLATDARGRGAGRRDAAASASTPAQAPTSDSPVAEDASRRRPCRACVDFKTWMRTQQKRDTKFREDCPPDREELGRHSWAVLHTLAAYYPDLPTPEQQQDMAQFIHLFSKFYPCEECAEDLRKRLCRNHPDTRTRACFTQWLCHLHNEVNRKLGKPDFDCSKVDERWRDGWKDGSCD
FGF22 binding: binders of recombinant human FGF22 by thermal shift. SYPRO orange fluorescence; percent of sucrose octasulfate shift, DMSO zero. calls only at 9.99 µM. actives 1.5% (n = 340,000);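 active = melting point raised past a set limit in the mean and every replicate; inconclusive = no clear call; three in four hits are not shown here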
Target sequence (Q9HCT0 whole entry, looked up): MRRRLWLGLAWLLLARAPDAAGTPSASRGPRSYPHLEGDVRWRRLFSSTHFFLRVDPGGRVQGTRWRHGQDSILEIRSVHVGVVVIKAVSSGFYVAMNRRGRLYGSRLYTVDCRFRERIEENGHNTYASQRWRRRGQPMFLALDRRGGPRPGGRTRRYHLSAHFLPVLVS
Ecoli rRNA inh: inhibits bacterial ribosomal RNA function over humanized ribosomes; E. coli WT GFP vs humanized-ribosome RFP mutants, fluorescence, 24 h; hits give low values; DMSO median 0, no signal -100; GFP signal change (wild-type ribosome), % (concentration not given with the values); actives 1.6% (n = 350,000);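 active = significant combined selectivity score with lowered wild-type GFP, culture density cut under 30%, mutant RFP and density less affected; inactive = any of these conditions unmet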; note: one replicate is shown; some compounds called inactive have numbers as strong as hits
Vif TR-FRET: HIV-1 Vif–A3G interaction blockers – biochemical, TR-FRET, GST-Vif 1-94, biotin-A3G peptide, dose response retest, primary screen (AID 1117319). actives 0.57% (n = 260,000). TR-FRET GST-Vif / biotin-A3G peptide binding; higher % means a stronger effect; test concentration not given here; strong numbers were not always called active. one-dose inhibition, %; IC50 in µM for titrated hits;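 active = above the screen mean plus three standard deviations and confirmed in dose response; inconclusive = results disagree or hit not tested in dose response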;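 note: Vif residues 1-94 fused to GST binding biotinylated APOBEC3G peptide 110-148; 0% = full assay without inhibitor and 100% = GST in place of GST-Vif; retest series ran down from 100 µM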
E coli growth: E. coli growth inhibition. OD600 absorbance (concentration not given with the values). AID 1053175. Escherichia coli growth, OD600, 23 h; hits give low values. actives 0.21% (n = 330,000);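 active = OD600 absorbance below the run mean of sample wells minus 3.6 SD, in any replicate, cut at about 0.56 in these data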;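 note: stock transfer was 300 nL into about 60 µL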
AF4-AF9 inh: inhibitors of human MLL-AF4/AF9 interaction. P42568. AlphaScreen, biotin-AF4 peptide binding to FLAG-AF9. inhibition, % at 10 µM. actives 0.47% (n = 350,000). AID 651704;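 active = every replicate reaching a set inhibition limit, whatever the replicate mean, cut at about 25% in these data; inconclusive = mean inhibition reaches that limit but some replicates miss it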;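 note: 0% = plate neutral control median and 100% = total signal loss; the record names both 10 and 1 µM as test concentration; the first replicate is given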
Target sequence (P42568 whole entry, looked up): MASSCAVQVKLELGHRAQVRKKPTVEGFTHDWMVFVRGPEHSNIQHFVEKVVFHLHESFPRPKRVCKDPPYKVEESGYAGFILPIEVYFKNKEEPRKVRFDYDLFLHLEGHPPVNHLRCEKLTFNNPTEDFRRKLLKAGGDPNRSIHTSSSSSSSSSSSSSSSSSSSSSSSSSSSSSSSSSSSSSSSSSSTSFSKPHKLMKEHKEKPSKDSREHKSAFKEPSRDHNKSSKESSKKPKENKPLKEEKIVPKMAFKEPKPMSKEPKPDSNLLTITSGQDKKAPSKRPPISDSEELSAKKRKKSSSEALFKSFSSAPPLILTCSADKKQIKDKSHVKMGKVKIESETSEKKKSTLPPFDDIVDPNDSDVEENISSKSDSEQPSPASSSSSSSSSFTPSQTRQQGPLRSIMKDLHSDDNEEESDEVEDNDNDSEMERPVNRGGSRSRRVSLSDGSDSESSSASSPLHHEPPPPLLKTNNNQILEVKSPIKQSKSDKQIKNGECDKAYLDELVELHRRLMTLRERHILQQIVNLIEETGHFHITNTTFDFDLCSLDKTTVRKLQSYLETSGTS
Ecoli rRNA inh OD600: also measured in Ecoli rRNA inh; calls as there; OD600 change, %; measured here: OD600 growth;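 optical density of the mix in the first replicate; 0 = DMSO median and -100 = no signal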
Ecoli rRNA inh RFP: also measured in Ecoli rRNA inh; calls as there; RFP signal change, %; measured here: RFP humanized mutant strains;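 first replicate; 0 = DMSO median and -100 = no signal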
The depositor's hits bear a star; i = inactive; ? = inconclusive; . = not tested or not shown; & = joins results of further samples. Not all compounds are listed. The share of hits here may be higher or lower than overall.

Order of results: Ecoli rRNA inh OD600, Vif TR-FRET, Ecoli rRNA inh, E coli growth, ALR H2O2 inh, FGF22 binding, AF4-AF9 inh, HNF4A DNA FP, Ecoli rRNA inh RFP
> CCc1c(C(=O)NCc2cnn(C)c2)csc1C
    11, 18%, 18, 0.65, 98*, i, -12, -1.4, -1.4
> CCNCC(O)COCC(O)CNCC (configuration not stated)
    ., 0%, ., 0.74, ., ., ., -0.6, .
> CCNC(=O)C1CCCN(C(=O)c2ccc(OC(F)F)cc2)CC1 (configuration not stated)
    34, ., 12, ., ., i, -0.2, -2.6, -1.0
> COc1ccc(C(=O)N/N=C(/C)c2ccc(N3CCCCC3)cc2)cc1
    ., -3%, ., ., 92*, ., ., 3.3, .
> Cc1ccc2[nH]c(=O)c3cc(C(=O)N(C)C4CCCCC4)sc3c2c1
    16, ., 13, 0.68, -2, i, -1.1, -0.5, 4.5
> Cc1cc(S(=O)(=O)N2CCCC2)ccc1OCC(=O)NC1CCCC1
    -11, 24%, -10, 0.66, 1, i, -0.6, -1.2, -1.7
> Cc1cc(C)c(NC(=O)c2sc3nc(C)[nH]c(=O)c3c2C)c(C)c1
    13, -3%, 13, 0.71, -4, i, -0.2, ., 5.4
> CO[C@@H]1CN(C)C(=O)c2ccc(NS(C)(=O)=O)cc2OC[C@@H](C)N(C(=O)CN(C)C)C[C@H]1C
    2, ., -1, ., ., i, -1.6, ., -0.5
> CCCCn1c(N)c(N(CC(C)C)C(=O)COc2cc(C)ccc2Cl)c(=O)[nH]c1=O
    8, -5%, 12, 0.63, ., i, -1.7, -2.0, 2.8
> CC(=O)c1ccc(NC(=O)Cn2nc(C)cc2C)cc1
    ., 1%, ., 0.68, -4, ., ., 2.0, .
> CC(CN(C)Cc1ccccc1)OC(=O)c1ccc2c(c1)OCCO2 (configuration not stated)
    ., -3%, ., 0.67, -16, ., ., 0.6, .
> CC(OC(=O)CCC(=O)N1CCN(S(=O)(=O)c2ccc3ccccc3c2)CC1)C(=O)NC(N)=O (configuration not stated)
    -2, 11%, -1, 0.63, -3, i, 0.1, 1.4, -1.1
> CC1Cc2ccccc2N1Cc1cc(=O)c(OCC(=O)NCCc2ccccc2)co1 (configuration not stated)
    -11, 2%, -6, 0.69, ., i, 0.5, -2.1, 0.3
> COc1cccc(NC(=O)NC(=O)c2c(C)cc(Cl)nc2Cl)c1
    -20, -8%, 3, 0.67, -12, i, -3.5, 2.2, 0.6
> COc1ccc(NC(=S)N2CCCC2)cc1
    ., ., ., 0.66, -18, ., ., -1.7, .
> Cc1cc(=O)c2n(Cc3ccc(Cl)cc3)nc[n+]2[nH]1
    ., -6%, ., 0.73, 1, ., ., 6.7, .
> COc1ccc(NC(=O)Nc2ccc3c(c2)C(=O)N([C@H](C)CO)C[C@H](C)[C@@H](CN(C)Cc2ccc(C(F)(F)F)cc2)OCCCC[C@H](C)O3)cc1
    7, ., -1, ., ., i, -3.8, ., 3.4
> COc1ccc(S(=O)(=O)NCCc2csc(-c3cccnc3)n2)cc1
    2, 1%, 1, 0.78, ., i, -9.7, 4.9, 0.9
> CCN1c2ccccc2-c2nc3ccccc3n2C1c1ccncc1 (configuration not stated)
    ., 4%, ., 0.71, -2, ., ., 2.3, .
> Cc1ccc(-c2nnn(CC(=O)N(c3cccc(O)c3)C(C(=O)NC(C)(C)C)c3cccs3)n2)o1 (configuration not stated)
    1, 3%&-3%, 3, 0.65, -3, i, 3.7, 1.0, -11

Printed as active in ALR H2O2 inh, among the entries above:
mol	Ecoli rRNA inh OD600	Vif TR-FRET	Ecoli rRNA inh	ALR H2O2 inh	FGF22 binding	AF4-AF9 inh	HNF4A DNA FP	Ecoli rRNA inh RFP
CCc1c(C(=O)NCc2cnn(C)c2)csc1C	11	18%	18	98*	i	-12	-1.4	-1.4
COc1ccc(C(=O)N/N=C(/C)c2ccc(N3CCCCC3)cc2)cc1	.	-3%	.	92*	.	.	3.3	.

(further entries)
Order of results: Ecoli rRNA inh OD600, Vif TR-FRET, Ecoli rRNA inh, E coli growth, ALR H2O2 inh, FGF22 binding, AF4-AF9 inh, HNF4A DNA FP, Ecoli rRNA inh RFP
> O=C(Cc1ccccc1[N+](=O)[O-])OCN1C(=O)c2ccccc2C1=O
    -12, ., 2, 0.73, 2, i, -1.2, 2.7, 0.5
> C[C@H]1CN([C@@H](C)CO)S(=O)(=O)c2ccc(Br)cc2O[C@H]1CN(C)C
    3, ., 11, ., ., i, -3.0, ., 0.0
> Nc1nonc1-n1nnc(C(=O)N/N=C/c2ccncc2)c1CSc1ccccc1
    8, ., 5, ., 0, i, -0.9, -6.2, 2.5
> CC1CCCN(S(=O)(=O)c2ccc(NC(=O)CNC3CCCC3)cc2)C1 (configuration not stated)
    7, ., 1, ., -3, i, 1.9, -0.8, -4.5
> CCCCN(CC(=O)NCc1ccc(Cl)cc1)S(=O)(=O)c1ccc2c(c1)OCCO2
    5, 4%, -2, 0.69, -19, i, -6.6, -1.9, 12
> CCCCC(c1nc2ccccc2[nH]1)n1c(-c2ccccc2)nc2cc(C)c(C)cc21 (configuration not stated)
    ., ., ., ., ., i, -0.4, -1.0, .
> COCCn1c(SCC(=O)N2CCCc3ccccc32)nc2cccnc21
    ., -1%, ., 0.72, -8, ., ., 1.6, .
> O=C(CNc1ccccc1)c1ccc([N+](=O)[O-])cc1
    11, 18%, 8, ., -10, i, -6.8, 0.6, 6.9
> CC(C)(C)C(=O)Nc1cccc(-c2cc(-c3c(Cl)cccc3Cl)no2)c1
    9, -12%, -1, 0.73, 17, i, -5.9, -3.6, -0.6
> COc1ccc(N(CC(=O)Nc2ccccc2C(=O)NCCc2ccccc2)S(C)(=O)=O)cc1OC
    ., 4%, ., 0.69, -7, ., ., 0.6, .
> O=C1C(=O)N(c2ccccc2)C(c2ccccc2)C1c1ccccc1 (configuration not stated)
    -72, -7%, -49, 0.66, ., i, -0.1, -0.1, -14
> O=C(Nc1ccc(S(=O)(=O)NC2=NCCCCC2)cc1)c1cc(F)c(F)cc1Cl
    1, -5%, 0, 0.68, ., i, 0.3, -0.4, -0.4
> CC(C)COC(=O)CCNc1n[nH]c(=O)[nH]c1=O
    ., 9%, ., 0.72, -2, ., ., -0.3, .
> O=C(Cc1ccccn1)NCC[C@@H]1CC[C@H](NS(=O)(=O)c2ccc(F)cc2)[C@@H](CO)O1
    0, ., 1, ., ., i, -3.2, ., -1.5
> O=C(COC(=O)c1nn(CCO)c(=O)c2ccccc12)Nc1ccc(Cl)c(Cl)c1
    -13, ., -19, 0.68, -6, i, 0.1, 0.5, -0.3
> Cc1cc(C)cc(NC(=O)CN(C)CC(=O)N(CC(C)C)c2c(N)n(CC(C)C)c(=O)[nH]c2=O)c1
    7, 2%, 5, 0.68, 0, i, 4.6, -2.7, -1.8
> CC(=O)OCCCNc1cc(Sc2ccc(C)cc2)c2nonc2c1[N+](=O)[O-]
    ., 15%, ., 0.71, 41, ., ., 1.4, .
> O=C(NCCC1=CCCCC1)c1cc(S(=O)(=O)N2CCOCC2)c(Cl)cc1Cl
    8, -1%, -4, 0.7, ., i, 1.7, 0.2, -5.0
> NS(=O)(=O)c1ccc(NS(=O)(=O)c2ccc(Br)cc2)cc1
    8, ., 3, 0.69, 2, i, -2.6, -2.5, -3.9
> CN(C)c1ccc(N=C/C=C2\N(C)c3ccccc3C2(C)C)cc1
    ., ?, ., 0.69, 99*, ., ., 23, .
> COc1ccccc1CC(=O)N1CCN(S(=O)(=O)c2ccccc2)CC1
    7, ., 13, 0.68, 5, i, -2.2, 0.7, 1.6
> Cc1cc(C(=O)N2CCCC(CO)(Cc3ccc(F)cc3)C2)c(C)o1 (configuration not stated)
    9, ?, 2, 0.7, -4, i, 2.7, 1.2, -2.2
> OCCNc1ncnc2c1sc1nc(N3CCOCC3)c3c(c12)CCC3
    -22, 1%, -18, 0.71, -2, i, -0.7, 1.5, -3.6
> CC(OC(=O)c1cn(-c2ccccc2)nc1-c1cccnc1)C(N)=O (configuration not stated)
    6, 1%, 14, 0.72, -5, i, -0.2, -3.8, 1.0
> CC(=O)Nc1c(O)nc(SCC(=O)Nc2c(C)cccc2C)[nH]c1=O
    ., 2%, ., 0.66, ., ., ., -5.8, .
> CC(C)(C)c1cc(NC(=O)COC(=O)C2CC2)n(-c2ccccc2)n1
    ., -6%, ., 0.75, -2, ., ., 0.9, .
> CC(C)c1nnc(NC(=O)CCS(=O)(=O)Cc2ccccc2)s1
    3, ., 11, 0.68, 0, i, -3.5, -1.4, 0.1
> O=C(NCCCN1CCCCCC1)c1ccc2c(Cl)c3c(nc2c1)CCCC3
    6, 1%, 0, 0.66, 13, i, 6.9, -0.4, 0.5
> CCN1CCN(Cc2ccc(NC(=O)c3cc(NC(=O)c4ccc5n[nH]nc5c4)cc(OC)c3)cc2C(F)(F)F)CC1
    4, 3%, -4, 0.69, -8, i, 4.9, 0.2, 9.2
> O=C(NCC[C@@H]1CC[C@@H](NC(=O)c2cnccn2)[C@H](CO)O1)c1ccc2c(c1)OCO2
    4, ., -1, ., ., i, 0.6, ., -1.9
> COc1ccc(NC(=O)CN2CCC(C(N)=O)CC2)cc1
    ., >100µM*, ., 0.74, -11, ., ., -2.4, .
> Cc1noc(C)c1NC(=O)Nc1cccc2c1O[C@@H](CN(C)Cc1ccccc1)[C@@H](C)CN([C@H](C)CO)C2=O
    12, ., 3, ., ., i, 0.7, ., -3.5
> COC(=O)c1ccc(NC(=O)c2cc(-c3ccccn3)nc3ccccc23)cc1
    24, -26%, 12, 0.71, ., i, -0.9, -3.6, 1.2
> COc1cc2cc(C(=O)NCCc3ccccc3)[nH]c2cc1OC
    6, -3%, 0, 0.67, -7, i, -2.9, 0.2, -0.2
> Cc1ccc(S(=O)(=O)N2CCCC2C(=O)O)s1 (configuration not stated)
    ., 10%, ., 0.73, -25, ., ., 0.6, .
> COc1ccc(N2C(N)=C(C#N)C(c3cccnc3)C3=C2CC(C)(C)CC3=O)cc1 (configuration not stated)
    ., 8%&3%, ., 0.78, 1, ., ., 0.3, .
> C[C@H]1CN([C@@H](C)CO)C(=O)c2cc(NS(=O)(=O)c3ccc(Cl)cc3)ccc2O[C@@H]1CN(C)S(=O)(=O)c1cccs1
    -9, ., -1, ., ., i, -1.7, ., 2.1
> CCC1C(=O)NCCN1C(=O)c1ccc2nc(Cc3ccc(OC)cc3)oc2c1 (configuration not stated)
    4, ., 1, 0.68, -6, i, -7.5, -2.1, -1.0
> CO[C@H]1CN(C)C(=O)c2ccc(NS(C)(=O)=O)cc2OC[C@H](C)N(CC2CCOCC2)C[C@H]1C
    1, ., 1, ., ., i, -2.6, ., -3.8
